Assay outcomes from PubChem.
S aureus helic = inhibitors of S. aureus replicative helicase, primary screen, biochemical, fluorescence unwinding readout; AID 485395, 2010; inhibition, %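 (tested at about 80 µM)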; purified S. aureus helicase, fluorescence unwinding assay; about half of the hits fall short of the stated cut; replicative DNA helicase (DnaC/DnaB), Staphylococcus aureus; 120,000 tested, 0.05% active;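 active means both duplicates at 50% or more, or one of them with a favoured structure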;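 further: 0% = mean of negative control wells and 100% = mean of positive control wells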
MgrA DNA FP = S. aureus MgrA activity modulators, primary screen, biochemical, S. aureus Newman, fluorescence polarization; MgrA-DNA binding; inhibition, %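 (about 10 µg/mL by stock and volumes)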; 84,000 tested, 0.13% active;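 active means above 50% in either of two replicates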;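 further: 0% = protein plus DNA without compound and 100% = DNA alone without protein; higher means less MgrA bound to DNA so lower polarization; one replicate is shown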
Numbers without * were called inactive; . = no result given; & = joins results of further samples. Only part of the results is shown; the hit share may differ from the screen's.

Structure	S aureus helic	MgrA DNA FP
COc1ccccc1N1CC(C)(C)C(=O)N(C(=O)c2c(F)cccc2Cl)C1=S	.	-1.0
CCn1nc(C(=O)N(C)Cc2ccc(OC(F)F)cc2)c2ccccc2c1=O	-11	.
Cc1ccc(OC(=O)CCC(=O)N2CCc3ccccc32)cc1	4	2.5
O=C(NCc1ccco1)NC(=O)c1ccccc1	22	.
O=C(COC(=O)c1cccnc1Cl)c1ccccc1Br	17	-1.8
Oc1ccc(Br)cc1C=Nc1cc2c(cc1Br)OCCO2	-3	1.8
O=C(CCCCCN1C(=O)C2C3C=CC(C3)C2C1=O)Nc1ccc2ncccc2c1 (stereo unspecified)	-13	.
Cn1ncc2c(NCC3CCCO3)ncnc21 (stereo unspecified)	1	.
C=CCNC(=O)c1scc2c1CCCC2	19	-1.9
Cc1noc(C)c1CSc1ncccc1C(=O)Nc1ccnn1C(C)C1CC1 (stereo unspecified)	-6	.
FC(F)(F)c1cc(N2CCC(n3cccc3)CC2)c2ccccc2n1	.	-1.3
COC(=O)c1ccc(-n2ncnc2-c2ccc(N(C)C)cc2)cc1	-33	.
O=C(Cn1cnc2c(nc3n2CCCCC3)c1=O)N1CCCc2ccccc21	-27	.
COc1ccc(/C=C(/NC(=O)c2ccccc2)C(=O)O)cc1	.	-2.6
N#Cc1c2c(c(N3CCCCC3)n3c1nc1ccccc13)CCC2	.	5.1
O=C(CN1C(=O)C2C3C=CC(C3)C2C1=O)N1CC=C(c2ccccc2)CC1 (stereo unspecified)	-1	1.9
CCC1(CC)N=C(c2ccccc2)C(=S)N1	-36	.
Cc1cnn(C(=O)c2ccc(Br)o2)c1	25	-1.1
CC(C)NC(=O)c1cnn2c(C(F)F)cc(-c3ccccc3)nc12	1	1.1
N/C(=N\NC(=O)c1ccccc1)c1cc2ccccc2oc1=O	-24	.
O=C(NCCCN1CCOCC1)c1ccc(CN2C(=O)CCn3nccc32)cc1	-1	-0.2
Cc1ccc(NC(=O)Nc2cccs2)c(Cl)c1	-9	.
COc1ccc(CN2C(=O)CC(Cc3ccc(C)cc3)C2=O)cc1OC (stereo unspecified)	-12	1.6
COc1ccc(CNC(=O)c2nn3c(c2Br)NC(c2cccs2)CC3C(F)(F)F)cc1 (stereo unspecified)	.	-1.1
N=c1cc(C2(O)CCCCC2)n2c(nc3ccccc32)s1	-21	-0.7
COc1cc(NC(=O)c2cc3n(n2)C(C(F)(F)F)CC(c2ccc(Br)cc2)N3)cc([N+](=O)[O-])c1 (stereo unspecified)	.	2.0
CC(C)C(C(=O)O)n1c(=S)[nH]c2ccccc2c1=O (stereo unspecified)	-3	.
COC(=O)c1cc(S(=O)(=O)NCC2CCN(CCc3cccs3)CC2)c[nH]1	-16	.
O=c1[nH]c2cc3c(cc2cc1CNCc1ccc2c(c1)OCO2)OCCO3	8	-0.3
CCOC(=O)c1cc(C)nn1S(=O)(=O)c1ccc(Cl)c(Cl)c1	.	-2.8
CCN(CC)C(=O)CCc1nc2sc3c(c2c(=O)[nH]1)CCCC3	8	.
COc1ccc(C2=N/C(=C\c3ccc(C)o3)C(=O)O2)c(Cl)c1	5	.
CC1(c2ccc(F)cc2)CC(=O)c2cc(O)ccc2O1 (stereo unspecified)	16	-0.4
Cc1ccc(NC(=O)CCc2nc3ccccc3c(=O)[nH]2)cc1	-14	.
CC(=O)NC(Cc1ccc(O)cc1)C(=O)NN (stereo unspecified)	2	.
Nc1nc(CN2CCc3ccccc3C2)nc(Nc2ccccc2)n1	15	.
N/N=C1\C(=N/O)CCc2nonc21	18	1.0
O=C(Nc1ccc2c(c1)nc1n2CCN(Cc2ccccc2)C1)C1CCCCC1	8	0.0
COc1cc(Cl)c(NC(=O)c2cc(C)[nH]n2)c(OC)c1	-8	.
O=C(CN(CCc1ccccc1)S(=O)(=O)c1ccc(Br)cc1)NC1CC1	4	0.2
CC1(C)CC(=O)C2=C(C1)NC(=O)CC2c1ccccc1 (stereo unspecified)	14	4.7
Cn1c(C(C#N)C(=O)COc2ccc(Cl)cc2)nc2ccccc21 (stereo unspecified)	2	.
NS(=O)(=O)c1ccc(CCNC(=O)c2cc3c(s2)-c2ccccc2OC3)cc1	5	0.6
Cc1ccc(SCC(=O)Nc2ccc(F)cc2)cc1	.	-2.0
COc1ccc(N(C(C)=O)S(=O)(=O)c2ccc(F)cc2)cc1	9	0.3
O=C(O)c1ccccc1Sc1ncnc2sccc12	0	.
O=C1CCc2c1[nH]c1ccc(OCc3ccccc3)cc21	0	.
COc1ccc(C(CC#N)C(C)C)cc1 (stereo unspecified)	8	-1.2
O=C(c1nnc(Cc2ccc(F)cc2Cl)o1)N1CCCC1	7	1.1
CCOc1ccccc1NC(=O)c1cc(=O)[nH]c2ccccc12	5	3.7
Cc1[nH]c2ccccc2c1C(=O)CN1CCN(S(=O)(=O)/C=C/c2ccccc2)CC1	5	.
O=C1NC(=O)C(Nc2ccccc2Cl)S1 (stereo unspecified)	4	-1.7
Cc1c(Nc2ncnc3c2cnn3C)c(=O)n(-c2ccccc2)n1C	-1	.
CCN(CC)CN1C(=O)C2C3c4ccccc4C(c4ccccc43)C2C1=O (stereo unspecified)	1	0.2
CNc1nc2ccccc2n1CCO	8	.
COC(=O)N1C2C=CC(C2)C1(C(F)(F)F)C(F)(F)F (stereo unspecified)	.	-1.0
NCC1OCCc2ccccc21 (stereo unspecified)	4	1.7
CSc1ncc(S(=O)(=O)Cc2ccco2)c(N)n1	.	-2.0
Cc1cccc(NC(=O)C2C3CC/C=C\CCC32)c1 (stereo unspecified)	4	-6.0
COc1ccc(OCCN2C(=O)CNC2=S)cc1	.	-1.1

Remaining list, next part.
Structure	S aureus helic	MgrA DNA FP
Cc1cccc(OCC(=O)NCC(=O)n2nc(C)cc2C)c1	28	.
CCOC(=O)C1=C(C)N=c2s/c(=C3\C(=O)N(CC)c4ccccc43)c(=O)n2C1c1cccc([N+](=O)[O-])c1 (stereo unspecified)	.	0.7
CCN(CC)C(=O)c1ccc2c(c1)OCO2	2	-2.5
COc1cccc(/C=C2\SC(=S)N(CCCC(=O)NC(C)(C)C)C2=O)c1	15	.
CCc1cc(-c2n[nH]c(C)c2-c2nc3ccccc3n2C)c(O)cc1O	-1	2.3
Cc1cc(-c2nnc(-c3ccc(Cl)cc3)o2)no1	.	1.2
Cc1ccc(C(=O)OCC(=O)/C=C2\N(C)c3ccccc3C2(C)C)cc1NC(=O)c1ccco1	-13	.
COC(=O)c1cc(=O)[nH]c(SCc2cccc(C)c2)n1	4	.
O=C(C(Cc1ccccc1)n1cccc1)N1CCc2ccccc21 (stereo unspecified)	5	.
CCn1c2ccccc2c2cc(NS(=O)(=O)c3cccs3)ccc21	-20	.
CCOC(=O)c1[nH]c2ccc([N+](=O)[O-])cc2c1CCN1C(=O)c2ccccc2C1=O	.	-1.4
COc1ccc(S(=O)(=O)Nc2ccccc2C(=O)N2CCCCC2)cc1	-10	.
O=C(Cc1ccc(N2CCCC2=O)cc1)Nc1ccc(-c2nnc3n2CCCCC3)cc1	-5	.
COc1cc2c(cc1OC)C(C)N(C(=O)c1snnc1C)CC2 (stereo unspecified)	.	-2.6
O=C(N/N=C/c1sc(N2CCCCC2)nc1-c1cccs1)c1ccccc1	-44	.
Cc1ccccc1C(=O)NCC1CCCN2CCCCC12 (stereo unspecified)	-1	.
COc1ccc(-c2c(C)c3ccc(OC(=O)N4CCOCC4)cc3oc2=O)cc1	-3	.
O=C(CC(C(=O)O)N1CCOCC1)Nc1ccc(Cl)cc1Cl (stereo unspecified)	-12	.
Cc1ccc2nc(-c3ccc(C(F)(F)F)cc3)oc2c1	.	-6.7
Cc1cccc2c1-c1sc(C(=O)NCCN3CCCCC3C)cc1CO2 (stereo unspecified)	14	-3.0
Cn1c2ccccc2c2cnn(CNC(=O)Nc3ccc(F)cc3)c(=O)c21	5	-0.2
CC(C)C(NC(=O)c1ccc(C23CC4CC(CC(C4)C2)C3)cc1)C(=O)N(C)Cc1ccco1 (stereo unspecified)	8	-1.9
Cn1cnnc1SCC(=O)c1ccc(Cl)cc1	.	-1.6
CN(c1ccccc1)S(=O)(=O)c1cc2c3c(c1)CCC(=O)N3CCC2	-6	.
COc1cccc(NC(=O)Cn2ncc3c(=O)oc4ccccc4c32)c1	9	.
O=c1cc(N2CCCC2)[nH]c(=O)n1-c1ccc(Cl)cc1	4	.
COCCNC(=O)c1cccc2c1SCCC2=O	1	.
O=C(NCCc1ccccc1)c1cc(-c2cccs2)on1	7	.
CC(c1ccccc1)C1OCC(CN2CCCCC2)O1 (stereo unspecified)	24	.
Cc1cscc1NC(=O)/C=C/C(=O)O	.	-4.2

Next section:
Second line of a record: S aureus helic	MgrA DNA FP
> CCCNC(=O)Cn1cc(S(=O)(=O)N2CCCC2)c(S(=O)(=O)N2CCCC2)c1
→ -6	.
> COc1cc2nc(SCc3ccc(F)cc3)n3nc(-c4ccccc4)nc3c2cc1OC
→ 14	0.0
> CN(C)S(=O)(=O)c1ccc(N2CCCC2)c(C(=O)OCc2ccc(F)cc2)c1
→ 8	.
> Cc1cc(C)cc(NC(=S)Nc2cccc(Cl)c2C)c1
→ .	-0.5
> OC(CCN1CCCCC1)(c1ccccc1)C1CCCCC1 (stereo unspecified)
→ .	-2.8&-1.4
> CC1CCCCC1NC(=O)C1c2cccn2CC(=O)N1Cc1ccccc1 (stereo unspecified)
→ 1	.
> N#Cc1cccc(CSc2nc(NC3CC3)c3ccccc3n2)c1
→ 9	.
> CC(C)N(C(=O)CSc1nnc(Cc2cccs2)n1CCc1ccccc1)C(C)C
→ 1	.
> CC(=O)Nc1ccc(S(N)(=O)=O)cc1Cl
→ .	0.8
> O=C(O)CCC(=O)N(Cc1cccs1)Cc1cccs1
→ 7	.
> CCOC(=O)/C(C)=C1\NC(C)(C)Cc2ccccc21
→ -1	10
> O=C(CSC1=NCCS1)N1CCN(c2ccccc2)CC1
→ 7	0.8
> CCOC(=O)c1[nH]c2ccccc2c1NC(C)=O
→ 19	.
> COc1ccc2cc(/C=C3/C(=O)NC(=S)N3C(C)=O)c(N3CCOCC3)nc2c1
→ 3	14
> CC(=NCc1ccc(C)cc1)c1c(O)cc(C)oc1=O
→ 7	.

A different layout for four compounds above.
Molecule: O=C(CC(C(=O)O)N1CCOCC1)Nc1ccc(Cl)cc1Cl (stereo unspecified)
  S aureus helic: -12 | MgrA DNA FP: .

Molecule: Cc1ccc2nc(-c3ccc(C(F)(F)F)cc3)oc2c1
  S aureus helic: . | MgrA DNA FP: -6.7

Molecule: Cc1cccc2c1-c1sc(C(=O)NCCN3CCCCC3C)cc1CO2 (stereo unspecified)
  S aureus helic: 14 | MgrA DNA FP: -3.0

Molecule: Cn1c2ccccc2c2cnn(CNC(=O)Nc3ccc(F)cc3)c(=O)c21
  S aureus helic: 5 | MgrA DNA FP: -0.2

Next part
Second line of a record: S aureus helic	MgrA DNA FP
> O=C1c2ccccc2C(=O)N1CCCc1nc(-c2ccc(Cl)cc2)no1
→ -11	1.4
> Cc1cc(C)nc(-n2nc(C)cc2NC(=O)c2ccc(Cl)c(S(=O)(=O)N3CCOCC3)c2)n1
→ 6	.
> NS(=O)(=O)c1ccc(NC(=O)CCCC(=O)N2CCOCC2)cc1
→ 21	.
> COc1ccc(CN2CC(C(=O)NCCCN3CCCCCC3)CC2=O)cc1 (stereo unspecified)
→ 7	.
> O=C(O)CSCC(=O)Nc1nc(SCc2ccc(Cl)cc2)n[nH]1
→ .	-2.9
> CCC(=O)Nc1cc2c3c(c1)CCN3C(=O)CC2
→ 2	.
> CCN(CC)CCNC1CCN(CC)CC1
→ 4	1.4
> CCn1c(N)c(C(N)=O)sc1=S
→ 8	5.1
> Fc1ccc(Cn2[nH]nnc2=S)cc1
→ .	1.5
> CCn1c(Cn2cc(S(=O)(=O)N3CCCC3)ccc2=O)nc2cc(S(=O)(=O)N(C)C)ccc21
→ 10	.
> C=CCn1c(C)cc(C(=O)Cn2c(CN3CCOCC3)nc3ccccc3c2=O)c1C
→ 2	.
> Oc1c(C(c2cccnc2)N2CCCC2)ccc2cccnc12 (stereo unspecified)
→ -4	.
> CC(C)C1C(=O)OC2(C)CC(C)(C)NC(=S)N12 (stereo unspecified)
→ -9	0.4
> O=C(Nc1ccc(Cl)cc1)N1CCCN(Cc2ccccc2F)C1
→ 6	0.4
> O=C(Nc1ccc2c(c1)OCCO2)N1CCN2CCCCC2C1 (stereo unspecified)
→ -17	.
> O=C(O)c1ccc(Cl)cc1N=Cc1nc(-c2ccccc2Br)oc1O
→ .	1.7
> CCOC(=O)N1CCN(C(=O)Cc2c(C(=O)O)n(C)c3ccccc23)CC1
→ -33	.
> CC(=O)Nc1[nH]c2c(c1C#N)CCCCC2
→ 6	-0.9

Some of the entries above in another layout.
S aureus helic | MgrA DNA FP | Structure
2 | . | CCC(=O)Nc1cc2c3c(c1)CCN3C(=O)CC2
4 | 1.4 | CCN(CC)CCNC1CCN(CC)CC1
8 | 5.1 | CCn1c(N)c(C(N)=O)sc1=S
. | 1.5 | Fc1ccc(Cn2[nH]nnc2=S)cc1
10 | . | CCn1c(Cn2cc(S(=O)(=O)N3CCCC3)ccc2=O)nc2cc(S(=O)(=O)N(C)C)ccc21
